From PubChem BioAssay
HCMV UL50-53 inh – cytomegalovirus nuclear egress complex inhibition. inhibition, % (test concentration not listed). AID 1918969. HTRF UL50-UL53 interaction, normalized percent inhibition. 0.15% of 190,000 active;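 active = both replicates at 50% or more, plus weaker picks with an unusually low signal ratio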;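 note: stock transfer was 100 nL into about 20 µL; 0% = negative control wells and 100% = wells with untagged competitor protein; inactives centre near -12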
Sa growth inh – inhibitors of Staphylococcus aureus growth at 42 °C; S. aureus RN4220 growth, OD600, 20 h; stronger effect = lower value; 0.53% of 170,000 active; relative growth, % (test concentration not listed);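 active = growth at 42 °C up to 50% and 20 or more points under that at 30 °C, or under 10% at both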;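 note: 300 nL library stock went into each well; scaled to the means of positive and negative controls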
GIV-Gai inh – inhibitors of GIV GBA-motif binding to rat Galpha-i3; P08753; Galpha-i3/FITC-GIV peptide fluorescence polarization, 90 min; stronger effect = lower value; scaled: aluminum fluoride 0%, vehicle 100%; percent of control (FP), % (test concentration not listed); 0.42% of 210,000 active;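 active = replicate mean at 85% of control or lower, very high polarization wells dropped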;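 note: wells of about 15 µL received 100 nL stock; the first replicate is given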
Target sequence (P08753 whole entry, looked up): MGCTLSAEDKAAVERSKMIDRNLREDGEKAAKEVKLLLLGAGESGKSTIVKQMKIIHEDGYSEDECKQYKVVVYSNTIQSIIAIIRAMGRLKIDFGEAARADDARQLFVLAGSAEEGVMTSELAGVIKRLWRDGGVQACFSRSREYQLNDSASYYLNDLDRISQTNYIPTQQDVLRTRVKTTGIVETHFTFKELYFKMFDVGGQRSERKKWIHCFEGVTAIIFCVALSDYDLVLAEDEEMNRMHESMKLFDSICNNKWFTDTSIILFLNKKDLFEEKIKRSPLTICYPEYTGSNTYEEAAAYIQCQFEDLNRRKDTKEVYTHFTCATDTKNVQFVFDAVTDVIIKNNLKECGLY
Sa growth inh second temp – second read-out of Sa growth inh, no call of its own (marks repeat the call); relative growth, %; measured here: growth at 30 °C;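 optical density after 20 h as mean of two plates; 100% = untreated growth and lower means inhibition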
Starred values were filed as active, the others as inactive; x = not tested or not shown; & = joins results of further samples.

SMILES | HCMV UL50-53 inh | Sa growth inh | Sa growth inh second temp | GIV-Gai inh
O=C(Nc1ccccn1)c1ccc2c(c1)OCCO2 | -24 | x | x | 102
O=C(Nc1c[nH]c2ccccc12)N1CCCc2ccccc21 | -54 | 37 | 17 | 106
O=C(Cn1c(=O)n(-c2ccccc2)c(=O)c2sc3ccccc3c21)NC1CCCC1 | 14 | 102 | 96 | 104
O=C(NCCCN1CCN(c2ccc(F)cc2)CC1)c1cc2c(s1)-c1ccccc1OC2 | 5 | 101 | 73 | 107
CN(c1nnc(NC(=O)Nc2ccccc2C(F)(F)F)s1)C1CCCCC1 | 6 | 104 | 65 | 100
CC1CCN(c2nc3nonc3nc2N2CCC(C)CC2)CC1 | 6&7 | 105 | 94 | 108&104
O=C(c1ccc(F)cc1)N1CCCCC(Sc2nnc3sc4ccccc4n23)C1=O (stereo not drawn) | x | 108 | 81 | 105
Cc1ncsc1C(=O)O | -19 | 83 | 95 | 101
CC(SCC(=O)N1c2ccccc2CC1C)C(=O)O (stereo not drawn) | 8 | 84 | 105 | x
COc1ccc(-c2cc(C(F)(F)F)nc(SCC(=O)N(C)Cc3ccccc3)n2)cc1OC | -40 | 77 | 88 | 106
CCOC(=O)Nc1nc2ccccc2[nH]1 | -43&-2 | 91 | 84 | 106
O=C(O)CSc1ccccc1C(=O)O | -16 | 89 | 89 | 101
CCCNC(=O)c1cnc2sc(N3CCCCCC3)nn2c1=O | x | 104 | 88 | 108
CC(C)c1ccc(C2=C(O)c3ccccc3C(=O)C2=O)cc1 | x | 72 | 60 | 103
C/C=C(/C(=O)O)c1ccccc1OC | -6 | 92 | 94 | x

Profiles as entered above:
CCCNC(=O)c1cnc2sc(N3CCCCCC3)nn2c1=O as listed: HCMV UL50-53 inh: x; Sa growth inh: 104; Sa growth inh second temp: 88; GIV-Gai inh: 108
COc1ccc(-c2cc(C(F)(F)F)nc(SCC(=O)N(C)Cc3ccccc3)n2)cc1OC as listed: HCMV UL50-53 inh: -40; Sa growth inh: 77; Sa growth inh second temp: 88; GIV-Gai inh: 106
Cc1ncsc1C(=O)O as listed: HCMV UL50-53 inh: -19; Sa growth inh: 83; Sa growth inh second temp: 95; GIV-Gai inh: 101

The main list resumes; the five compounds before the break are reprinted first.
SMILES | HCMV UL50-53 inh | Sa growth inh | Sa growth inh second temp | GIV-Gai inh
CCOC(=O)Nc1nc2ccccc2[nH]1 | -43&-2 | 91 | 84 | 106
O=C(O)CSc1ccccc1C(=O)O | -16 | 89 | 89 | 101
CCCNC(=O)c1cnc2sc(N3CCCCCC3)nn2c1=O | x | 104 | 88 | 108
CC(C)c1ccc(C2=C(O)c3ccccc3C(=O)C2=O)cc1 | x | 72 | 60 | 103
C/C=C(/C(=O)O)c1ccccc1OC | -6 | 92 | 94 | x
Clc1ccc2c(c1)c1ccccc1n2CN1CCOCC1 | -4 | 117 | 79 | 102
CCn1c(=O)c2sccc2n2c(CCCC(=O)NCCc3c[nH]c4ccccc34)nnc12 | -8 | x | x | 106
COc1ccc(Cl)cc1N1C(=O)c2ccncc2C1=O | -34 | x | x | 104
N#CCCCSc1nc2ccccc2c(=O)n1Cc1ccccc1 | 3 | 100 | 90 | 96
O=c1cc(CSc2ncn[nH]2)[nH]c2c(Cl)cccc12 | x | 77 | 84 | 114
O=C(CCc1nc2sc3c(c2c(=O)[nH]1)CCCCC3)Nc1ccccc1 | -12 | x | x | 103
O=C(CSc1nnc(-c2ccco2)o1)OCc1cc(F)cc2c1OC(c1ccccc1)OC2 (stereo not drawn) | -21 | 109 | 82 | x
CCc1ccccc1NC(=O)Cn1nnc(C(=O)NCCc2ccccc2)c1N | -3 | 104 | 82 | 107
COc1ccc(CNc2nc(-c3ccc(Cl)cc3)nn2S(=O)(=O)c2ccc(C)cc2)cc1 | -27 | 98 | 87 | 107
CCc1ccc(OCCSc2nc3ccccc3n2CC(=O)N2CCCCC2)cc1 | -18 | 96 | 87 | 101
CCCCNC(=O)Cc1n[nH]c(=O)c2ccccc12 | -32 | 81 | 83 | x
Cc1ccc(-n2c(SCCc3c(C)noc3C)nnc2-c2ccc(Cl)cc2)cc1 | -25 | 84 | 92 | x
Cc1ccccc1NS(=O)(=O)c1ccc(CCN2C(=O)c3cccnc3C2=O)cc1 | -76 | 106 | 91 | 103
CCC1Cn2c(C(=O)N3CCN(c4ccccn4)CC3)cc3c(Cl)ccc(c32)O1 (stereo not drawn) | -9 | x | x | 99
Cc1cc(Cl)ccc1OCC(=O)OCC(=O)N1CCCCC1 | 11 | 117 | 102 | x
COc1cc(NC(=O)Cn2nnnc2-c2ccccc2F)cc(OC)c1OC | -39 | 88 | 85 | 96
Cn1c(C2CC(=O)N(CC3CC3)C2)nc2ccccc21 (stereo not drawn) | -23 | x | x | 101
O=C(c1cc2cc(Br)ccc2oc1=O)N1CCSC1c1ccccc1 (stereo not drawn) | -20 | x | x | 105
CCOc1ccc(Cc2nnc(N)s2)cc1OCC | -4 | 101 | 90 | 104
COc1ccc(-n2cnnc2SCc2ncc(-c3ccccc3)o2)cc1 | -26 | 91 | 95 | x
O=S(=O)(NCCCN1CCOCC1)c1ccccc1 | -12 | 101 | 84 | 99
CCOC(=O)c1ccc(NC(=O)Cc2noc3ccccc23)cc1 | x | 84 | 80 | 97
CSc1nnc(CCN2CCN(C)CC2)n1C | -7 | 102 | 101 | 98
CC(CO)NCc1ccccc1 (stereo not drawn) | -23 | 94 | 84 | 104
O=C(OCCN1C(=O)c2ccccc2C1=O)Oc1ccccc1 | -37 | 97 | 86 | 94
O=C(CN1CCCCCC1=O)N/N=C/c1c(Cl)nc2sccn12 | -28 | 85 | 88 | x
Cc1cccc(CSc2nc3c(c(=O)[nH]2)C(c2cccc(O)c2)CC(=O)N3)c1 (stereo not drawn) | 1 | 110 | 83 | 100
COc1ccc(NC(=O)c2ccc(OC)c(OC)c2)cc1 | -16 | 99 | 87 | 104
O/N=C1\Cc2cccc3cccc1c23 | -19 | 107 | 104 | x
O=C(/C=C/OC(=O)c1ccc(C(F)(F)F)cc1)c1ccc(F)cc1 | -96 | 106 | 74 | 97
COc1ccc(Cl)cc1NC(=O)c1cc2c(Cl)nc3ccc(C)cc3c2s1 | x | 90 | 90 | 102
CCOc1ccc(CCNC(=O)CN2N=C(c3ccccc3)CCC2=O)cc1OCC | x | 89 | 93 | 99
Cc1ccc2[nH]c3nc(SCC(=O)O)nnc3c2c1 | -49 | 83 | 88 | 109
COC(=O)c1cc2ccc(C)cc2[nH]1 | -16 | 93 | 68 | 99
Fc1ccc(-c2cc(-c3ccccc3)c3c(n2)-c2ccccc2OC3)cc1 | -9 | 94 | 89 | 103
Clc1ccc(-c2cn3ccc4ccccc4c3n2)cc1 | -21 | x | x | 106
CCCCN(C)S(=O)(=O)c1ccc2c(c1)CCN2C(=O)CCC(=O)O | -11 | 91 | 90 | 97
Cc1cc(C)n(CC(O)Cn2c3ccccc3c3ccccc32)n1 (stereo not drawn) | -14 | 88 | 76 | 102
O=C(CCc1ccncc1)NNC(=O)N1Cc2ccccc2Oc2ccc(Cl)cc21 | -16 | x | x | 100
O=C(CSc1nccn2nc(-c3ccccc3)cc12)Nc1cc(F)ccc1F | -19 | x | x | 104
COc1ccc(CNC(=O)c2cnc(N3CCCC3)nc2)cc1 | -14 | x | x | 102
Cc1ccccc1OCC(=O)NCCC1=CCCCC1 | -6 | 98 | 101 | 104
Cc1cccc(CS(=O)(=O)Cc2ccc(C(=O)NCCC3=CCCCC3)o2)c1 | x | 95 | 86 | 111
CCOC(=O)c1sc(N)c(C#N)c1COC(=O)c1nn(CC)c(=O)c2ccccc12 | 20 | 101 | 97 | x
CCOc1ccc(CCNC(=O)c2cnc3c(-c4ccccc4)c(C)nn3c2C)cc1OCC | x | 82 | 93 | 99
O=C(NC1CCCC1)C1CCCN(S(=O)(=O)c2ccc(-n3cnnn3)cc2)C1 (stereo not drawn) | 10 | 99 | 115 | 104
O=S(=O)(CCSc1ccc(C(F)(F)F)cn1)c1ccc(Cl)cc1 | 6 | 100 | 102 | 106
O=C1N=c2ccccc2=C1c1sc2ccccc2c1O | -8 | 71 | 98 | 99
COc1cc(CNCCSc2nnnn2C)cc(Br)c1OCc1ccccc1 | 0 | x | x | 97
Cc1ccc(-c2nnn(CCC(=O)NC(C)(C)C)n2)cc1 | -15 | 91 | 102 | 94
COc1cccc(NC(=O)CSc2nnc(C)o2)c1 | -26 | 83 | 75 | x
O=C(O)C1Oc2ccccc2O1 | -16 | 94 | 79 | 102
NC(=O)c1cccc2c(=O)oc3ccccc3c12 | -2 | 118 | 84 | 100
N#CCn1c2ccccc2c2nc3ccccc3nc21 | -26 | x | x | 106
Cc1ccc(-c2cc(-c3ccccc3)nc(N)c2C#N)o1 | x | 81 | 84 | 104
C/C(=N/NC(=O)c1c(N)no[n+]1[O-])c1cccs1 | -45 | 101 | 99 | 102
CCC(C)N(C(=O)Cn1c(=O)cnc2ccccc21)C1CCS(=O)(=O)C1 (stereo not drawn) | -62 | 86 | 84 | x
CC1CC(C)CN(S(=O)(=O)c2ccc(C(=O)Nc3nc4ccc([N+](=O)[O-])cc4s3)cc2)C1 (stereo not drawn) | -19 | x | x | 104
O=C1C2Cc3ccccc3CN2C(=S)N1c1ccccc1 (stereo not drawn) | -19 | 98 | 89 | x
CCOc1ncccc1C(=O)OCc1ccc(C(=O)OC)o1 | -23 | 89 | 89 | x
The listing continues:
SMILES | HCMV UL50-53 inh | Sa growth inh | Sa growth inh second temp | GIV-Gai inh
COCC(C)NC(=O)c1cc2c(=O)n3cccc(C)c3nc2s1 (stereo not drawn) | -69 | 97 | 91 | 103
O=C(NCCC1=CCCCC1)c1ccc2c(c1)N(Cc1ccc(Cl)cc1)C(=O)c1ccccc1S2(=O)=O | -29 | 94 | 90 | 103
CSc1nc2ccccc2n1CC(=O)Nc1c(C)n(C)n(-c2ccccc2)c1=O | -30 | x | x | 99
CCCCNc1cc(C(C)(C)C)nc2c(-c3ccc(F)cc3)c(C)nn12 | -9 | x | x | 100
O=C(COC(=O)Cc1c(F)cccc1Cl)NCc1ccc(Cl)cc1 | -24 | 126 | 86 | x
COC(=O)c1ccc(OC)c(CSc2nnc(COc3cc(C)cc(C)c3)o2)c1 | -5 | 91 | 113 | 89
O=C(OCC(=O)c1c[nH]c2ccccc12)c1cccc(S(=O)(=O)N2CCOCC2)c1 | -10 | 98 | 90 | x
CC(=O)Nc1[nH]c(O)c2ccccc12 | -10 | 90 | 79 | 125
COC(=O)c1c[nH]n2c(=O)c3c(nc12)CCN(Cc1ccccc1)C3 | 10 | 93 | 88 | 110
CCCN(CCC)Cn1nc(-c2ccncc2)n(CCCOCC)c1=S | -32 | 89 | 95 | x
COc1ccccc1/C=C1\SC(=O)N(CC(=O)N2CCOCC2)C1=O | x | 101 | 78 | 100
Cc1nc(COc2cc(C)c(Cl)c(C)c2Cl)cs1 | 0 | 96 | 98 | 114
CC(=O)Nc1ccc(S(=O)(=O)NCC(=O)OC2CCOC2=O)cc1 (stereo not drawn) | -7 | 100 | 98 | x
Cc1ccccc1Cc1c(C)nc2c(-c3nc(-c4ccc(Cl)cc4)no3)cnn2c1C | -10 | x | x | 134
CC(C)(C)OC(=O)N1CCCC1C(=O)Oc1ccc2c(=O)c(-c3ccc4c(c3)OCCO4)coc2c1 (stereo not drawn) | 4 | 117 | 83 | x
CCn1c(-c2ccc(C)cc2)cnc1SCC(=O)NCC1CCCO1 (stereo not drawn) | -3 | 104 | 100 | x
Nc1c(C(=O)c2ccccc2)sc2nccc(Nc3ccccc3)c12 | -8 | 89 | 86 | x
CCOC(=O)/C=C1\SCC(=O)N1Cc1ccc(Br)cc1 | -33 | 88 | 88 | x
CC(C)c1cc(NC(=O)COC(=O)c2ccccc2CSc2ncn[nH]2)on1 | 1 | 105 | 88 | x
CC(=O)c1ccc(C(=O)N(Cc2cccnc2)c2nc3c(Cl)cccc3s2)cc1 | x | 79 | 79 | 104
COc1cc(C2C3=C(CC(C)(C)CC3=O)Nc3ccccc3N2C(=O)C(C)C)cc(OC)c1OC (stereo not drawn) | -22 | x | x | 105
O=C(Nc1ccc(F)cc1)c1ccc(Nc2ccnc(-c3ccc(F)cc3)n2)cc1 | -14 | x | x | 98
O=C(O)C1Cc2ccccc2C1 | 18 | 113 | 99 | 101
COC(=O)c1sc(N)c(C(=O)OC)c1CSc1nncn1-c1ccccc1 | -45 | 56 | 56 | x
COCCSc1ccccc1C(=O)N1CCCC1 | -6 | 102 | 91 | 112
CC(=O)N1C(=O)C2(OCC3(CO2)COC2(OC3)C(=O)N(C(C)=O)c3ccccc32)c2ccccc21 (stereo not drawn) | -2 | 105 | 111 | 104
COc1cccc(C(=O)CN2C(=O)/C(=C/c3ccco3)N=C2c2ccccc2)c1 | -9 | 103 | 91 | 112
O=C1/C(=C\c2ccco2)N=C(SCn2nnc3ccccc3c2=O)N1c1ccc(OC(F)F)cc1 | -30 | 95 | 88 | x
Cc1nc(SCC(=O)O)oc1C | x | 110 | 80 | 107
O=C(CCn1cccn1)NCc1ccc(Cl)cc1 | x | 102 | 87 | 98
C/C(=N\NC(=O)c1ccc2c(c1)OCO2)c1cc(F)ccc1O | -14 | 78 | 96 | x
